Bioassay records from PubChem.
PrP 5UTR inh: inhibition of PrP 5' UTR reporter expression. AID 488862, 2010. cell-based PrP 5' UTR mRNA reporter, plate reader. inhibition, % (test concentration not listed). actives 0.35% (n = 340,000);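 active = every replicate at 50% or more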;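 also: 0 = median of the neutral control wells; tested in H4 reporter cells; numbers are from one replicate; inactives centre near -14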
Mtb hypoxia inh: PubChem AID 1159583; M. tuberculosis hypoxia-regulated fluorescent reporter, fluorescence; fluorescence inhibition, % (test concentration not listed); actives 0.1% (n = 300,000);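 active = 35 to 45% if threefold the growth effect, above 45% if 1.5-fold the growth effect; inactive = the rest, general growth blockers included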;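 also: wells of about 50 µL received 100 nL stock; 0% = vehicle wells and 100% = reference inhibitor wells; whole bacteria with a GFP reporter of the hypoxia response; strong numbers were not always called active; many hits fall short of the cut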
Autofluor counter: flagged as autofluorescent in microsphere protease counterscreen; compound autofluorescence counterscreen, microsphere flow cytometry; stronger effect = higher value; fluorescence intensity (no concentration beside the values); actives 3.1% (n = 360,000); AID 624483;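 active = at least 3 SD above the mean of all compounds, about 16000 in these data; inconclusive = too few beads counted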;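 also: 100 nL of 1 mM stock went into each well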
ugtP null kill: growth inhibition of ugtP-null S. aureus, primary screen, RN4220 ugtP deletion, OD600. 16 h; some inactives read as strong as hits. growth inhibition, % (test concentration not listed). actives 0.54% (n = 330,000);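 active = z-score under -3 and OD600 up to 0.15 on both plates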;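 also: plate controls were untreated wells for no effect and antibiotic for full effect; wells of about 80 µL received 100 nL stock; the first replicate is given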
BJeLR viability: MLPCN primary cell-based screen for lethality selective to Ras in HRASV12 cells | BJeLR (HRASV12) viability, CellTiter-Glo ATP luminescence, 48 h; reference of the scale not given here | inhibition, % (concentration not given with the values) | actives 0.17% (n = 300,000);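 active = replicate mean above 50%; inconclusive = above 50% but judged a plate artefact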;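 also: 50 nL library stock added to about 25 µL; numbers are from one replicate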
RN4220 kill: growth inhibition of S. aureus RN4220, primary screen, OD600. 16 h. inhibition, % (no concentration beside the values). actives 0.33% (n = 330,000). AID 1259311, 2017;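 active = z-score of -3 or lower and OD600 up to 0.18 on both plates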;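 also: plate controls were untreated cells for no effect and reference antibiotic for full effect; stock transfer was 100 nL into about 80 µL; one replicate is shown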
Mtb hypoxia inh growth: also measured in Mtb hypoxia inh; calls as there; growth inhibition, %; measured here: M. tuberculosis growth (absorbance);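 0% = vehicle and 100% = reference antibiotic; read after six days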
Starred values were filed as active, the others as inactive; ? = inconclusive; · = not tested or not shown.

SMILES | PrP 5UTR inh | Mtb hypoxia inh | Mtb hypoxia inh growth | Autofluor counter | ugtP null kill | BJeLR viability | RN4220 kill
COCCNS(=O)(=O)c1ccc2c(c1)Cc1cc(S(=O)(=O)NCCOC)ccc1-2 | -12.9 | 10.6 | 4.7 | 3980 | 9.1 | 25.6 | -2.1
C=CCN1CCN(C(=O)CSc2ccccc2)CC1 | -24.4 | 14.2 | 4.0 | 3377 | 4.9 | 8.8 | 1.7
CC(C)NC(=O)CC(=O)N/N=C/c1ccccc1F | 5.9 | · | · | ? | · | 1.4 | ·
CCC(C)NC(=O)CNC(=S)N(Cc1ccc(F)cc1)C1CCCCC1 (configuration not stated) | -12.7 | -1.0 | 12.5 | 3909 | 0.8 | 13.3 | 4.9
O=C(NCCCn1ccnc1)Nc1ccc(Cl)c(Cl)c1 | -34.8 | 17.6 | 15.3 | 10262 | -21.4 | 1.1 | -8.1
c1ccc(-c2csc3ncnc(-n4cnc5ccccc54)c23)cc1 | 12.2 | · | · | 3729 | 1.5 | 16.4 | 4.5
COC(=O)c1ccc(CSc2nc3ccccc3c(=O)n2-c2ccc(OC)c(OC)c2)o1 | -0.4 | -5.3 | -8.2 | 12950 | 0.5 | -4.3 | -1.2
COc1cccc(NC2=NCCCCC2)c1 | -17.4 | -7.7 | -4.8 | 3768 | 6.2 | -2.2 | 0.4
CCC(C)(C)n1nnnc1C(c1ccc2ncccc2c1)N1CCCC(C)C1 (configuration not stated) | -17.2 | 11.0 | 8.4 | 2787 | 0.9 | 14.7 | 6.6
Cc1ccc(S(=O)(=O)N(C)CC(=O)Nc2ccc(C)cn2)cc1 | -13.3 | 1.2 | -3.0 | ? | 0.7 | -24.4 | 4.4
CC1NC(=O)c2cc([N+](=O)[O-])cc(I)c2OCCC(C(=O)NC(CC(=O)O)C(N)=O)NC(=O)C(CC(N)=O)NC1=O (configuration not stated) | · | 1.2 | 5.4 | · | 8.2 | · | 8.3
CCc1ccc2c(c1)C(=NOC)C(=O)N2 | · | 9.9 | 1.8 | · | 9.5 | · | 5.0
Cc1ccc2oc(C(=O)N3CCN(Cc4ncccc4C)CC3)c(C)c2c1 | -19.3 | 1.8 | 6.9 | 6329 | 13.5 | -6.5 | -3.6
COc1ccc(NC(=O)C2CCC(=O)N2)cc1 (configuration not stated) | -20.1 | -7.5 | -9.9 | 15411 | 1.1 | 3.7 | 5.1
O=C(COc1ccccc1Cl)Nc1ccc(S(=O)(=O)N2CCOCC2)cc1 | -6.2 | 4.7 | -0.3 | 3353 | 1.1 | -2.6 | 0.2
O=C(CNC(=O)c1ccc(N2CCCC2=O)cc1)Nc1ccc(F)c(F)c1F | 2.2 | -19.8 | -1.7 | 2762 | 0.0 | · | 1.1
CCOCCCNC(=O)c1c(C)[nH]c(C(=O)OCC)c1C | -6.8 | -3.6 | 1.4 | 16166* | 3.1 | 2.6 | 3.1
COc1ccc(/C=C/c2nc(S(=O)(=O)c3ccccc3)c(N(C)C)o2)cc1 | 6.1 | -7.2 | -4.6 | 4394 | -10.0 | 6.9 | -2.5
CC1CCN(S(=O)(=O)c2ccc3ccccc3c2)CC1 | -1.2 | 8.8 | 4.4 | 3363 | 1.7 | 1.7 | 1.9
COc1ccc(-c2oc3cc(O)c(OC)c(O)c3c(=O)c2OC)cc1 | -43.9 | · | · | 4948 | 6.4 | -2.6 | 1.0
O=C(NN=Cc1ccncc1)c1ccccn1 | · | -9.5 | 6.6 | · | 8.8 | · | 3.9
CCCS(=O)(=O)N1CCC(C(=O)Oc2ccc(OC)cc2)CC1 | -4.8 | 11.8 | 0.5 | 10048 | 4.0 | 1.0 | 1.8
CC(C)(C)NC(=O)NCCc1ccccc1 | -85.9 | 9.5 | 7.5 | · | 4.6 | 3.5 | 1.2
O=S(=O)(NC1CCCCCCC1)OCC(Cl)(Cl)Cl | -19.7 | 3.7 | 3.5 | 4088 | 6.8 | 4.7 | 11.2
COc1ccc(N(CC(=O)NC2CCCCCC2)S(=O)(=O)c2c(C)nn(C)c2C)cc1 | -13.2 | 5.1 | 2.5 | 9785 | -0.2 | · | 4.0

One compound at a time (already shown). Order of values: PrP 5UTR inh	Mtb hypoxia inh	Mtb hypoxia inh growth	Autofluor counter	ugtP null kill	BJeLR viability	RN4220 kill
Results for c1ccc(-c2csc3ncnc(-n4cnc5ccccc54)c23)cc1 → 12.2	·	·	3729	1.5	16.4	4.5
Results for CCOCCCNC(=O)c1c(C)[nH]c(C(=O)OCC)c1C → -6.8	-3.6	1.4	16166*	3.1	2.6	3.1
Results for CCCS(=O)(=O)N1CCC(C(=O)Oc2ccc(OC)cc2)CC1 → -4.8	11.8	0.5	10048	4.0	1.0	1.8
Results for O=C(COc1ccccc1Cl)Nc1ccc(S(=O)(=O)N2CCOCC2)cc1 → -6.2	4.7	-0.3	3353	1.1	-2.6	0.2

Continued.
SMILES | PrP 5UTR inh | Mtb hypoxia inh | Mtb hypoxia inh growth | Autofluor counter | ugtP null kill | BJeLR viability | RN4220 kill
C[C@H](CO)N1C[C@H](C)[C@@H](CN(C)Cc2ccc3c(c2)OCO3)Oc2c(NS(=O)(=O)c3cn(C)cn3)cccc2C1=O | -23.8 | 1.4 | 13.6 | 3534 | -6.1 | · | -14.5
CCNC(=S)NNC(=O)c1cc(Br)cs1 | 2.0 | -7.8 | 5.8 | 2434 | 1.5 | 10.8 | -0.4
CCCN1C2CCCC1CC(NC(=S)NCCCOCC)C2 (configuration not stated) | -43.3 | 10.3 | -3.4 | 4084 | 2.3 | 3.5 | 3.5
COc1ccc(NC(=O)c2cccc3c2C(=O)N(CC2CCCO2)C3)cc1OC (configuration not stated) | 0.9 | 6.2 | 1.2 | 5650 | 5.5 | 2.7 | 7.7
CN1CC2C(c3ccc(Cl)nc3)C3(c4cccnc4)CC2(C3)C1c1ccccc1 (configuration not stated) | · | 6.9 | 0.8 | · | -1.2 | · | 5.9
CN(C)c1ccc(NC(=O)CSc2nc(C3CC3)nc3ccccc23)cc1 | -13.6 | 15.1 | 8.1 | 5405 | 4.3 | -1.8 | 6.0
S=c1[nH]nc(-c2ccc3ccccc3n2)n1-c1ccccc1Cl | -14.8 | 23.9 | 20.9 | 2447 | 3.1 | -9.0 | -5.1
c1cc2c(cc1C1CCCN1)OCCCO2 (configuration not stated) | -16.4 | · | · | 4847 | -1.8 | -4.7 | 3.0
C#CCNC(C)Cc1ccccc1 (configuration not stated) | · | 7.3 | 0.3 | · | 0.5 | · | 3.8
COc1cccc(-n2c(Cc3cc(=O)[nH]c(=O)[nH]3)nnc2SCC(=O)N2CCCCCC2)c1 | -1.2 | · | · | 6129 | -1.5 | · | 2.1
Nc1nnnn1/N=C/c1cc([N+](=O)[O-])ccc1O | -16.9 | · | · | 4129 | · | -4.2 | ·
O=C(NN=C/C=C/c1ccc2c(c1)OCO2)c1ccc([N+](=O)[O-])cc1 | · | -5.5 | -5.3 | · | 2.1 | · | 3.7
CC(=O)Nc1ccc2cc3ccc(NC(C)=O)cc3nc2c1 | -18.4 | -17.8 | 4.7 | 3610 | -5.0 | 12.9 | -0.3
COc1cc2c(cc1OC)-c1n[nH]c(=S)n1C(C)(C)C2 | -14.0 | 14.5 | -0.5 | 4903 | 0.6 | -2.4 | 11.8
Cc1ccc(-c2csc3ncnc(-n4nnc5ccccc54)c23)cc1 | -8.5 | -1.7 | 2.7 | 2033 | -2.8 | -5.5 | 9.4
CCOc1ccccc1C(=O)N1CCN(c2cccc(Cl)c2)CC1 | 53.0 | 6.9 | 0.8 | 20455* | 8.9 | 52.9* | 0.8
c1ccc(Cc2ccc(OCCn3cncn3)cc2)cc1 | -6.0 | 18.1 | -1.7 | 4045 | 7.0 | 3.1 | 2.8
Cc1ccc(C)c(OCC(=O)Nc2ccc(S(=O)(=O)N3CCN(C)CC3)cc2)c1 | 0.2 | · | · | 4156 | -1.0 | -0.4 | -3.2
O=C(Cc1cccs1)NCc1cccc(Cl)c1 | -46.2 | 1.4 | 3.2 | 3611 | 2.5 | 3.6 | 3.7
CC(=O)c1cn(CC(=O)NCc2ccc3c(c2)OCO3)c2ccccc12 | -11.5 | 5.4 | 4.6 | 2832 | -7.9 | 16.9 | 1.7
CCC(=O)Nc1ccc2c(c1)ncn2-c1ccc(C)cc1 | -62.9 | 5.9 | -0.2 | 3938 | 2.7 | -2.0 | -1.1
COc1ccc(C2=NS(=O)(=O)N(C)C(C(=O)NC3CCCCC3)=C2)cc1OC | -1.8 | 4.1 | -0.6 | 5132 | 1.7 | 11.6 | 5.7
CCOC(=O)c1c(C)[nH]c(C(=O)Nc2ccc(NC(C)=O)cc2)c1C | -11.9 | 2.8 | 8.1 | 3615 | 2.8 | -2.3 | 1.0
Cc1ccc2c(c1)N(CC(=O)NCCCN1CCCC1)C(=O)CO2 | -26.4 | 3.7 | 4.6 | 3686 | 3.1 | 1.8 | 2.7
CN(N=Cc1c[nH]c2ccccc12)c1cnn(-c2ccc(F)c(Cl)c2)c(=O)c1Cl | · | 2.0 | 7.2 | · | -21.7 | · | -8.1

Next section
SMILES | PrP 5UTR inh | Mtb hypoxia inh | Mtb hypoxia inh growth | Autofluor counter | ugtP null kill | BJeLR viability | RN4220 kill
COc1cc(C(=O)NC(=S)NC(C)C)cc(OC)c1OC | -12.8 | 3.4 | -2.6 | 2092 | 10.2 | 14.3 | -0.8
Cc1ccc(N=C2NC(=O)CS2)cc1C | -16.2 | 13.0 | 8.5 | 4014 | 5.3 | 0.3 | 4.8
Cn1nnnc1-c1cc(Cl)cc(Cl)c1 | -12.2 | 8.2 | 5.4 | 4533 | 9.1 | 4.8 | 6.7
O=c1[nH]c(C2CCN(S(=O)(=O)c3ccc(F)cc3)CC2)nc2c1nnn2Cc1ccc2c(c1)OCCO2 | -11.2 | -17.2 | 10.3 | 5669 | -2.5 | -2.1 | -0.4
CCOc1ccc(C(C)=O)cc1CN1C(=O)NC2(CCCCC2C)C1=O (configuration not stated) | 9.9 | 2.1 | 9.4 | 10304 | -4.6 | -0.7 | 2.3
CCOCCOC(=O)c1ccc(NC(=O)c2cc(OC)c(OC)c(OC)c2Br)cc1 | -13.4 | 3.6 | 0.1 | 7475 | -0.9 | -0.5 | 3.1
O=C(CSc1ncccn1)Nc1cccc2ccccc12 | -19.9 | -0.7 | 7.1 | 4636 | 3.8 | 0.9 | 2.8
O=C(Cc1csc(Nc2nc(=S)[nH]c3ccccc23)n1)NCc1ccccc1Cl | -18.6 | 5.9 | 2.8 | 7720 | -13.8 | 10.0 | 6.5
CCC(C)(C)NC(=O)/C=C/c1ccc(OC)c(S(=O)(=O)N2CCOCC2)c1 | -6.4 | 5.3 | 2.7 | 2386 | 4.6 | -0.9 | 0.1
O=C(COC(=O)CCCOc1ccccc1)NNC(=O)c1ccc([N+](=O)[O-])cc1 | -32.2 | 10.1 | 8.8 | 5273 | 8.8 | -5.4 | 1.1
CCC(C(=O)N1CCOCC1)n1c(C(=O)OC)cc2occc21 (configuration not stated) | -28.7 | 22.3 | 2.7 | 12497 | 2.7 | 0.2 | 4.3
CC1CCCC(NC(=O)COC(=O)c2ccc(S(=O)(=O)N3CCOCC3)cc2)C1C (configuration not stated) | -17.5 | · | · | 4648 | 1.7 | -1.3 | 0.7
CCC(C)(c1ccc(C(=O)OC)s1)c1ccc(C(=O)OC)s1 | -9.2 | 4.9 | 6.2 | 8932 | 55.5 | -18.2 | 0.6
COC(=O)Nc1ccc(S(=O)(=O)N(C)CC(F)(F)C(F)F)cc1 | -4.2 | 9.3 | 12.7 | 3989 | -4.2 | -0.6 | 4.6
CC(=O)Nc1ccc(S(=O)(=O)N2CCN(Cc3cccnc3)CC2)cc1 | -21.6 | 5.8 | 8.1 | 5732 | -3.5 | -9.3 | -0.8
Cc1ccn2cc(CNS(=O)(=O)c3ccc(Cl)s3)nc2c1 | -13.8 | 3.5 | 5.7 | 7061 | -7.5 | -1.9 | -4.7
CCCNC(=O)Cn1c(=O)/c(=C\c2ccc(-c3cccc([N+](=O)[O-])c3)o2)s/c1=C\C(=O)C(C)(C)C | -10.4 | · | · | 2727 | · | -16.9 | ·
Cc1ccc(NS(=O)(=O)c2cccc(C(=O)NCC3(N(C)C)CCCCC3)c2)cc1 | 3.0 | 16.0 | 3.9 | 4446 | 15.1 | 0.3 | 2.3
CCN(CC)CCN(C(=O)c1ccc(S(=O)(=O)N2CCCC2)cc1)c1nc2cc(C)cc(C)c2s1 | -21.9 | · | · | 6106 | 4.5 | -6.1 | -3.1
COCC=CC1=CC2=CC(=O)C(C)(OC(=O)c3cnc4ccccc4n3)C(=O)C2=CN1CCCOC(C)C (configuration not stated) | · | 8.5 | 11.4 | · | 0.7 | · | 4.0
